Screening results: PubChem, ICCB-Longwood Screening Facility, Harvard Medical School
GIV-Gai inh: inhibitors of GIV GBA-motif binding to rat Galpha-i3; Galpha-i3/FITC-GIV peptide fluorescence polarization, 90 min; hits give low values; scaled: aluminum fluoride 0%, vehicle 100%; percent of control (FP), % (concentration not given with the values); 210,000 compounds, 0.42% hits;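 active means replicate mean at 85% of control or lower, very high polarization wells dropped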;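 further: wells of about 15 µL received 100 nL stock; the first replicate is given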
Target sequence (P08753 whole entry, looked up): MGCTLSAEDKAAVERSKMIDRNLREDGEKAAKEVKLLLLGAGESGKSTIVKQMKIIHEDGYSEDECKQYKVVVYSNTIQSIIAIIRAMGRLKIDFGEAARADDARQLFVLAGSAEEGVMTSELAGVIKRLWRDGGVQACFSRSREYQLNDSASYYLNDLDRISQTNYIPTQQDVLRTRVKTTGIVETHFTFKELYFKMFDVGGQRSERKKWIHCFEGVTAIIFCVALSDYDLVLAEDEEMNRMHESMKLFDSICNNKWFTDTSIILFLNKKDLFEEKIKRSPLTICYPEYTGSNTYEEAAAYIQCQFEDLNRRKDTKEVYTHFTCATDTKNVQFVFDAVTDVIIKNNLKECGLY
Active calls of the source: *.

compound	GIV-Gai inh
CC1(C)CC(=O)C=C(N2CCCCC2)C1	103
NC(=O)c1cnn2c3c(cnc12)CCCCCC3	105
Cc1c(C(=O)Nc2ccc3c(c2)OCCO3)sc2ncnc(N3CCCCC3C)c12 (stereo not drawn)	106
CC1(C)CC(=O)C2=C(C1)Nc1ccccc1N(C(=O)NCC1CCCO1)C2c1ccccc1 (stereo not drawn)	104
Cc1ccc(C2C3=C(CC(C)(C)CC3=O)Nc3ccccc3N2S(C)(=O)=O)cc1 (stereo not drawn)	100
Cc1ccc(C(=O)N2c3ccccc3N3C(c4c(C)c(C)cc(C)c4C)=NON23)cc1	109
O=C(Nc1ccc(Cl)cc1)c1ccc(C2Nc3ccccc3S(=O)(=O)N2)cc1 (stereo not drawn)	96
COc1cccc2cc(-c3csc(NC(=O)CCC(=O)NC4CCCCCC4)n3)c(=O)oc12	113

Next part.
compound	GIV-Gai inh
CC(=O)c1ccc(N2C(=O)/C(=C/c3ccc(-c4ccc(Br)cc4)o3)C=C2c2ccccc2)cc1	112
CCC(C)NC(=O)NC1CCN(C2=NS(=O)(=O)C(c3ccc(F)cc3)=C2C)CC1 (stereo not drawn)	101
Cc1cc(C2CCCN2C(=O)Nc2ccc3c(c2)OCCO3)no1 (stereo not drawn)	107
CCc1cc(C2CCCN2S(C)(=O)=O)on1 (stereo not drawn)	104
O=S(=O)(Nc1cc(F)cc(F)c1)c1ccc(-c2nnc(C3CC3)o2)o1	101
CNC(=O)CSc1c(COC)cnc2c1c(=O)n(C)c(=O)n2C	96
Cc1cc(N2C(=O)CSC2c2ccc3c(c2)OCO3)ccc1Br (stereo not drawn)	105
O=C(Nc1ccc2c(c1)OCCO2)c1ccc(-c2cc(NC3CCCCC3)ncn2)cc1	104

Other results follow:
compound	GIV-Gai inh
CCN(CC)C(=O)CSc1nc2c(sc(=S)n2CC)c(=O)n1-c1ccccc1	104
O=C1CC2c3ccccc3C1C1C(=O)N(c3ccc(N=Nc4ccccc4)cc3)C(=O)C21 (stereo not drawn)	111
O=C1c2cc(-c3nc(-c4ccc(Cl)cc4)[nH]c3-c3ccccc3)ccc2-c2ccc([N+](=O)[O-])cc21	108
COc1ccc(/C=C2\C=C(c3ccccc3)N(c3cccc(C(C)=O)c3)C2=O)cc1Br	78*
COc1ccc(C(=O)CC2(O)C(=O)N(Cc3cccc4ccccc34)c3ccccc32)c(OC)c1 (stereo not drawn)	110
COC(=O)C1=C(O)/C(=C/c2ccc(N(C)C)cc2)SC1=Nc1ccccc1	163
Cc1cc(C)cc(NC(=O)Nc2cccc(CCc3nc4ccccc4n3C)c2)c1	100
CN1C(=O)N(C)C(NC(=O)NC(C)(C)CO)C1NC(=O)NC(C)(C)CO (stereo not drawn)	104

Additional records follow.
compound	GIV-Gai inh
COc1ccc(CN2CCN(C(=O)c3ccc[nH]c3=S)CC2)c(OC)c1OC	110
CCc1nc(CN2C(=O)COc3ccc(S(=O)(=O)NCCc4sccc4C)cc32)no1	97
CCn1ncc(C2CC(=O)Nc3c2c(C)nn3-c2nc3ccc(OC)cc3s2)c1C (stereo not drawn)	103
CN(C)S(=O)(=O)c1ccc(-c2nnc(C(=O)NCc3ccc(F)cc3Cl)o2)cc1	103
O=C(CSc1nnc(NC(=O)COc2ccc(Cl)cc2Cl)s1)Nc1nccs1	115
CCOC(=O)C1=C(CSc2nc(C)c(C)c(C)c2C#N)OC(N)=C(C#N)C1c1cccc(OCc2ccccc2)c1 (stereo not drawn)	109
CCCOc1ccccc1C1C(C#N)=C(N)Oc2n[nH]c(-c3cc(OC)c(OC)c(OC)c3)c21 (stereo not drawn)	107
O=C1C2N=NN(c3cccc(F)c3)C2C(=O)N1c1ccccc1 (stereo not drawn)	106

4 of the compounds above, as labelled records.
COc1ccc(CN2CCN(C(=O)c3ccc[nH]c3=S)CC2)c(OC)c1OC
  GIV-Gai inh = 110
CCOC(=O)C1=C(CSc2nc(C)c(C)c(C)c2C#N)OC(N)=C(C#N)C1c1cccc(OCc2ccccc2)c1 (stereo not drawn)
  GIV-Gai inh = 109
CCc1nc(CN2C(=O)COc3ccc(S(=O)(=O)NCCc4sccc4C)cc32)no1
  GIV-Gai inh = 97
O=C1C2N=NN(c3cccc(F)c3)C2C(=O)N1c1ccccc1 (stereo not drawn)
  GIV-Gai inh = 106

Carrying on.
compound	GIV-Gai inh
Cc1ccccc1-c1cc2n(C)c(C)c(CCC(=O)NCc3ccccn3)c(=O)n2n1	109
Cc1ccc(-n2ccc(=O)c(-c3nc(-c4cccc(Cl)c4)no3)n2)cc1	99
CC(C)(C)NC(=O)N1CC=C(C(=O)NC2CC2)CC1	105
N#CC1=C(N)Oc2n[nH]c(-c3cccc([N+](=O)[O-])c3)c2C1c1ccc(OC(=O)N2CCOCC2)cc1 (stereo not drawn)	103
Cc1ccc(/C(O)=C2\C(=N)N(c3ccccc3)C3=C(C(=O)CCC3)C2c2cccc([N+](=O)[O-])c2)cc1 (stereo not drawn)	114
COc1ccc(-n2nc3c(c2NC(=O)c2cc4ccccc4oc2=O)CS(=O)(=O)C3)cc1	121
COc1cccc(N2C(=O)C3C(c4cccc(Cl)c4Cl)OC4(C(=O)c5ccccc5C4=O)C3C2=O)c1 (stereo not drawn)	109
COC(=O)c1ccc(N2C(=O)CSC2c2cc3c(cc2[N+](=O)[O-])OCO3)cc1 (stereo not drawn)	122

Carrying on.
compound	GIV-Gai inh
CCn1ncc(NC(=O)Cc2ccccc2C)c(N2CCCCC2)c1=O	101
Cc1cc(C)cc(Nc2ncnc3[nH]ncc23)c1	107
O=C(Nc1ccccc1Cl)c1nc2nc(-c3ccc(F)cc3)cc(C(F)(F)F)n2n1	104
Cc1ccc(NC(=O)Cn2cnc3c(sc4ncccc43)c2=O)c(C)c1	105
CC(C)(C)c1ccc(O)c(CN2CCCCC2)c1	103
CCSc1nnc(-c2nn(C)c3c2CN(S(=O)(=O)c2ccc4c(c2)CCCC4)CC3)n1CC	101
Cc1nn(-c2ccc3nnc(C)n3n2)c(C)c1CCC(=O)N1CCCC1	102
Cc1cccc(Cc2nc(CCNC(=O)c3ccc(Br)cc3)n[nH]2)c1	108

New compounds follow.
compound	GIV-Gai inh
O=C1CN(Cc2ccccc2F)S(=O)(=O)c2ccccc2N1Cc1ccccc1F	101
CCCCCOc1ccc(N2C(=O)C3C4c5ccc(C(C)(C)C)cc5C(c5ccc(C(C)(C)C)cc54)C3C2=O)cc1 (stereo not drawn)	108
CCOc1ccc(C(Nc2ccc(Br)cc2)P2(=O)OCCCO2)cc1 (stereo not drawn)	116
CC(C)(C)C(=O)Nc1nnc(C2CC(=O)N(c3ccc(F)cc3)C2)o1 (stereo not drawn)	92
COc1ccc(OC)c(C2N(c3ccc(C)cc3)CCN2c2ccc(C)cc2)c1	107
COC(=O)c1sccc1NC(=O)Cn1c(C)cc(C)c(-c2nc(-c3cccc(Cl)c3)no2)c1=O	100
CC1(C)CC(=O)c2cc(-c3ccccc3)n(CC(=O)OCN3C(=O)c4ccccc4C3=O)c2C1	99
Cc1ccc(C)c(N2CCN(Cc3nc4ccccc4[nH]c3=O)CC2)c1	104

Part of the list above, with each value named.
Molecule: CCCCCOc1ccc(N2C(=O)C3C4c5ccc(C(C)(C)C)cc5C(c5ccc(C(C)(C)C)cc54)C3C2=O)cc1 (stereo not drawn)
  GIV-Gai inh: 108
Molecule: CCOc1ccc(C(Nc2ccc(Br)cc2)P2(=O)OCCCO2)cc1 (stereo not drawn)
  GIV-Gai inh: 116
Molecule: CC(C)(C)C(=O)Nc1nnc(C2CC(=O)N(c3ccc(F)cc3)C2)o1 (stereo not drawn)
  GIV-Gai inh: 92

Continuation:
compound	GIV-Gai inh
CCn1cnnc1C1CCCN(Cc2cc(F)cc(F)c2)C1 (stereo not drawn)	115
CC(=NCCN1CCN(C(=O)C(C)C)CC1)c1c(C(F)(F)F)[nH]n(-c2nc3ccccc3s2)c1=O	104
COc1ccc(-n2ncc3c(Nc4cc(OC)c(OC)c(OC)c4)ncnc32)cc1	112
COc1ccc(CCNC(=O)c2cc(S(=O)(=O)N3CCOCC3)ccc2Sc2ccc(F)cc2)cc1OC	104
COc1cc(CN2CCCC2c2cc(C(C)C)on2)ccc1OC(C)C (stereo not drawn)	100
CC(C)c1ccccc1NC(=O)c1nc2nc(-c3ccc(F)cc3)cc(C(F)(F)F)n2n1	105
Cc1csc(-c2cc(S(=O)(=O)Nc3ccc(C)c(C)c3)c(C)s2)n1	174
CCOC(=O)C1=C(C)NC2=C(C(=O)C(C(=O)OCC)C(c3ccccc3OC)C2)C1c1ccc(OC)c(OC)c1 (stereo not drawn)	103

Continuation.
compound	GIV-Gai inh
Cc1ccc(N2C(=O)C(=O)/C(=C(\O)c3ccc(Cl)cc3)C2c2ccccc2F)cc1 (stereo not drawn)	106
O=C1N2CN(C3CCCCC3)CN3C(=O)N4CN(C5CCCCC5)CN1C4C23 (stereo not drawn)	106
CCC(SC1=NS(=O)(=O)c2ccccc2N1)C(=O)OC (stereo not drawn)	100
COCCCN1C(=O)/C(=C/c2c(N3CCN(CCO)CC3)nc3ccccn3c2=O)SC1=S	23*
Cc1cc(C)n2ncc(-c3ccc(C)c(S(=O)(=O)NCCCN4CCN(C)CC4)c3)c2n1	107
CCOC(=O)N1CCN(C(=O)CN(c2cc(C(F)(F)F)ccc2Cl)S(=O)(=O)c2ccccc2)CC1	112
Cc1noc(C)c1C1CCCN1C(=O)c1cc(-c2ccc3c(c2)OCO3)on1 (stereo not drawn)	108
O=C(c1cc2c(s1)CCCC2)N1CCCN(c2nnc3ccccn23)CC1	109

(cont.)
compound	GIV-Gai inh
N#Cc1cc(-n2c3ccccc3c3nc4ccccc4nc32)c([N+](=O)[O-])cc1C#N	103
Cc1ccc2nc(-c3ccccc3NC(=O)c3cccc(N(C)C)c3)ccc2c1	102
CCOC(=O)CNC(=O)c1sc2ncccc2c1-n1cccc1	101
Cc1cccc(NC(=O)c2ccc(N3CC4CC(C3)c3cccc(=O)n3C4)c(NC(=O)c3ccccc3Br)c2)n1 (stereo not drawn)	110
O=C(NCc1ccccc1Cl)c1cc(S(=O)(=O)N2CCOCC2)ccc1Sc1ccc(Br)cc1	97
COc1ccc(-c2cc3nc4n(c(=O)c3s2)CCOC4)cc1	107
CC1CCc2oc3ccc(NS(=O)(=O)c4ccc(C(C)C)cc4)cc3c2C1 (stereo not drawn)	113
c1csc(-c2cn3nc4c(nc3n2)CCCC4)c1	102

More entries:
compound	GIV-Gai inh
COC(=O)c1ccc2c(=O)n(Cc3ccco3)c(SCC(=O)N3CCN(c4ccccc4OC)CC3)nc2c1	106
CC(=O)c1ccc(N2C(=O)C3C(C2=O)C2(C)c4ccccc4C3(C)c3ccccc32)cc1 (stereo not drawn)	105
CCC(CC)C(=O)N1c2cc(C)c(C)cc2-c2c(ssc2=S)C1(C)C	102
Cc1cc(C)c(S(=O)(=O)Nc2cnc(N3CCNCC3)c(C(=O)NCC3CCCO3)c2)c(C)c1 (stereo not drawn)	103
O=c1oc2ccccc2cc1-c1csc(Nc2ccc(Oc3ccc4ccccc4c3Cl)c(Cl)c2)n1	101
CCOC(=O)C1=C(C)NC(=O)NC1c1ccc(OS(=O)(=O)c2ccc(C)cc2)cc1 (stereo not drawn)	113
CCCNC(=O)c1cccnc1Oc1ccc(NS(=O)(=O)c2ccc(Br)cc2)cc1	100
O=C(Nc1ccc(Cl)cc1)Nc1ccc(F)c(-c2nnc(-c3ccccc3)o2)c1	97

(listing goes on)
compound	GIV-Gai inh
CCOc1ccccc1N1C(=O)C2C(c3ccc(Cl)cc3)OC3(C(=O)c4ccccc4C3=O)C2C1=O (stereo not drawn)	113
CC(NC(=O)c1cc2c(-c3ccc(Cl)cc3)nn(C)c2s1)c1ccccc1 (stereo not drawn)	108
O=C(NCC1CCCO1)c1ccc2c(=O)n(Cc3ccco3)c(SCc3ccc(F)cc3Cl)nc2c1 (stereo not drawn)	100
CC(CCc1ccco1)NC(=O)C1CCc2nc(N3CCCCC3)ncc2C1 (stereo not drawn)	104
CCCCNC(=O)c1cccc(-c2cc(Oc3ccc(OC)cc3)ncn2)c1	109
O=S(=O)(NCc1cccs1)c1ccc(-c2ccno2)s1	98
CCCCSc1c(C(C)C)cnc2c1c(=O)n(C)c(=O)n2C	100
CCc1nc(CN2C(=O)COc3ccc(S(=O)(=O)N4CCN(CC)CC4)cc32)no1	100

More entries.
compound	GIV-Gai inh
Cc1ccc2c(c1)-c1c(ssc1=S)C(C)(C)N2C(=O)c1ccc(C(F)(F)F)cc1	114
CCn1nccc1C(=O)N1CCCC1c1cc(C)no1 (stereo not drawn)	102
CCN1/C(=c2/sc(=C3C(=O)c4ccccc4C3=O)n(C)c2=O)C=Cc2ccccc21	117
CCn1ncc(C2CC(=O)Nc3c2c(C)nn3-c2nc3ccccc3[nH]2)c1C (stereo not drawn)	106
COc1ccc(-n2nc3c(c2NC(=O)c2ccc(S(=O)(=O)N4CCOCC4)cc2)CS(=O)(=O)C3)cc1	105
Cc1ccc2nc(CNC(=O)c3nc(-c4ccc(N5CCCCC5)cc4)no3)[nH]c2c1	101
COc1ccc(-c2nc(NC(C)=O)c3c(=O)oc4ccccc4c3n2)cc1OC	103
CCOC(=O)c1c(NC(=O)CC2SC(=NC)N(C)C2=O)sc(C)c1C (stereo not drawn)	111

The list continues:
compound	GIV-Gai inh
CCOC(=O)CNC(=O)CSc1nnc(NC(=O)Nc2ccc(C)cc2)s1	97
O=C1CC(c2ccccc2OCCc2ccccc2)c2cnn(-c3nc4ccccc4s3)c2N1 (stereo not drawn)	95
COc1ccc(/C=C/C(=O)C2(C)CCCCC2)cc1	103
O=C(COc1ccc(-c2cnc3ccccc3n2)cc1)NCc1ccccn1	104
CC(=O)N1CCOc2cc(S(=O)(=O)N3CCCC3c3c(C)noc3C)ccc21 (stereo not drawn)	95
CC(C)NC(=O)c1nsc(C(=O)NC2CCCC2)c1N	101
O=C(NCCN1CCOCC1)c1nn2c(C(F)(F)F)cc(-c3ccc(Br)cc3)nc2c1Cl	104
COc1ccccc1N1CCN(C(=O)CSc2nc(NCC3CCCO3)c3ccccc3n2)CC1 (stereo not drawn)	109

These rows are one share of the data; count on the stated rates, not on these rows.
